Mtb betalactam – beta-lactam sensitization of Mtb H37Rv; M. tuberculosis H37Rv growth with meropenem, percent inhibition; hits of this screen are not shown here; inhibition, % at 25 µM; 330,000 tested, 0.27% active; AID 434955;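 active = about 74% or more and at least 40 points above the plate without the antibiotic, then above 30% in a dose series; inconclusive = first-round hits that could not be retested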;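 note: growth measured after seven days incubation then overnight dye step; 0% = bacteria only wells and 100% = bacteria with antibiotic; twin plates without the antibiotic show which effects depend on it; some results filed as inactive read as strong as hits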
RecA splice inh – blocks M. tuberculosis RecA intein splicing. P9WHJ3. cell-free RecA intein splicing, fluorescence. inhibition, %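 (about 9 µM by stock and volumes)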. 290,000 tested, 0.75% active; in the data active = inhibition above about 30%; inconclusive = no clear call, values can overlap the other calls;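 note: 0% = vehicle wells and 100% = reference inhibitor control wells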
Target sequence (P9WHJ3 whole entry, looked up, canonical isoform): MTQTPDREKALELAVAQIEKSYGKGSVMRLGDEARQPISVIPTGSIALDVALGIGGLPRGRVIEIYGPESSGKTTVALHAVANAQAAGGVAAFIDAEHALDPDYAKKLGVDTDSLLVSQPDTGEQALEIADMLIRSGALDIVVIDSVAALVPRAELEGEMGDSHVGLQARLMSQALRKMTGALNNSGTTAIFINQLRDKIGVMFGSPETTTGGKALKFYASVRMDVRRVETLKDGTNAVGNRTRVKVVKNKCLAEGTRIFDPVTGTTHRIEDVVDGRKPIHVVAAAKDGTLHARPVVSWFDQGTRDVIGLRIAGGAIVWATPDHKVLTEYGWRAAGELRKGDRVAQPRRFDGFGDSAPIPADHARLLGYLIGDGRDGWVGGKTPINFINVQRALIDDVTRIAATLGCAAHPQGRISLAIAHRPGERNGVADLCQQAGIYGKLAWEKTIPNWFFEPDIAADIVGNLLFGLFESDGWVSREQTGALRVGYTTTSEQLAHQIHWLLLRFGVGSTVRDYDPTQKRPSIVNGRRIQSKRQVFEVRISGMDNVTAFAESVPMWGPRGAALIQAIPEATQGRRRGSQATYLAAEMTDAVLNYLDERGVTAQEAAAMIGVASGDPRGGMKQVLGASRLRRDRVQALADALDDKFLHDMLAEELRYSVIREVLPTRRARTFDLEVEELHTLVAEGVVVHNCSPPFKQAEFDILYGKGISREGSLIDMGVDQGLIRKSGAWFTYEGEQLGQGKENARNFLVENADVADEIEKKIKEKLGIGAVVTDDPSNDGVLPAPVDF
YopH inh – blocks Yersinia enterocolitica YopH tyrosine phosphatase; fluorescence Ex485/Em525; inhibition, %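 (about 10 µM by stock and volumes)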; 140,000 tested, 0.16% active; AID 898;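 active = inhibition of 50% or more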;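 note: controls were vehicle for no effect and minimum signal wells for full effect; inactives centre near -20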
Mtb growth – M. tuberculosis H37Rv growth inhibitors, H37Rv strain (AID 1626); M. tuberculosis H37Rv growth inhibition; higher % means a stronger effect; one-dose inhibition, % at 10 µM; IC50 in µM for titrated hits; 220,000 tested, 0.95% active;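 active = confirmed in a dose series; inconclusive = inhibition above 80% but not taken into the dose series; inactive = below 80% or under 30% at every dose of the series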;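 note: bacteria incubated seven days before Alamar blue readout; 0% = bacteria only wells and 100% = bacteria with antibiotic wells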
Arbovirus anti – arbovirus infection inhibition. arbovirus infection cell-based antiviral screen. 200,000 tested, 0.37% active. inhibition, % at 10 µM;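 active = inhibition from about 30%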;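 note: bluetongue infection of BSR cells; cell survival read as ATP light after 72 h; 0% = infected wells without compound and 100% = uninfected wells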
Arbovirus anti repeat – further read-out of Arbovirus anti, marked with its call; inhibition, %; measured here: 10K subset replicate screen; many hits read low in the repeat;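 first of two repeat runs on a subset; 0% = infected and 100% = uninfected wells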
The depositor's hits bear a star; ? = inconclusive; · = no result given. Some of the compounds tested (hit frequency here may not be typical).

SMILES	Mtb betalactam	RecA splice inh	YopH inh	Mtb growth	Arbovirus anti	others
NC(=O)c1ccccc1NC(=O)/C=C/C(=O)O	-6	1.1	-3	-10%	4
O=C1c2[nH]nc(-c3ccccc3O)c2C(c2ccc(F)cc2)N1CC1CCCO1 (configuration not stated)	?	-4.5	-17	-13%	33*
C/C(=N\NC(=O)Cc1ccccc1)c1cccnc1	-2	2.3	·	·	·
O=C(Cc1ccc(S(=O)(=O)N2CCCCC2)s1)Nc1cccc2ccccc12	4	2.3	-19	-6%	-8
COc1ccccc1-c1csc(Cc2nnc3n2CCCCC3)n1	-13	0.8	-15	7%	3
CC(=O)c1cccc(NC(=O)CCS(=O)(=O)c2cccc3nonc23)c1	91	·	4	-11%	2	Arbovirus anti repeat=1
CS(=O)(=O)c1ccc(Cl)c(NC(=O)c2cccc(N3C(=O)CCC3=O)c2)c1	1	-1.1	·	·	·
COc1ccc(/C=C2\CCCCC2=O)cc1	4	5.2	·	·	·
OCCOCCNc1ncnc2nc[nH]c12	-1	1.3	-26	7%	8	Arbovirus anti repeat=0
CN(Cc1ccncc1)C1CC(=O)N(c2ccc(Cl)cc2)C1=O (configuration not stated)	5	-0.7	0	-8%	10
Cc1ccc(C(=O)c2c3ccccc3[n+]([O-])n2[C@@H](C)C(N)=O)cc1	2	0.1	·	·	·
Cc1ccc(-c2nc3ccc(Cl)cc3c(=O)n2O)cc1	75	-2.6	·	·	·
C=CCn1c2ccccc2c2nnc(SCC(N)=O)nc21	-2	-1.6	·	·	·
C(=N\n1cnnc1)/c1ccc2c(c1)OCCO2	-1	0.6	-32	-1%	-3
O=C(O)c1cc(Sc2ccc(Br)cc2)nc2ccccc12	·	5.4	·	-1%	-4
COC(=O)c1cc(S(=O)(=O)NC2CCCCC2)cn1C	0	-1.0	·	·	·
OCC[N+]12CCC(CC1)C(C(O)(c1ccccc1)c1ccccc1)C2 (configuration not stated)	-1	2.7	·	-3%	·
Cc1cccc(-c2nc(CS(=O)CC(=O)NCC3CCCO3)c(C)o2)c1 (configuration not stated)	-2	1.0	-19	1%	3	Arbovirus anti repeat=-3
Cc1cccc(NS(=O)(=O)c2ccc3c(c2)OCCO3)c1	10	0.9	-40	10%	-2
CCc1[nH]nc(C(=O)N2CCCC(CO)(Cc3ccc(F)cc3F)C2)c1C (configuration not stated)	-5	6.9	·	·	·
Cc1ccccc1-c1ccc(C(=O)NCc2ccccc2)o1	-2	9.6	-16	-5%	0
O=C(O)c1cc(N=Cc2c(O)c3ccccc3oc2=O)ccc1O	2	-26	·	·	·
COc1ccc(CN(CC(=O)NCC2CCCO2)C(=O)CCC(=O)Nc2cc(C)on2)cc1 (configuration not stated)	-11	0.0	-24	-8%	7
CC(C)CC1=NN(C(=O)c2ccco2)C(O)(C(F)(F)F)C1 (configuration not stated)	-5	-1.2	·	2%	1
CC(C)c1nc2sc3c(NCc4ccccc4)ncnc3c2c2c1COC(C)(C)C2	7	-0.4	-14	-2%	-1
CC(C)CC(=O)N1CCN(c2ccc([N+](=O)[O-])cc2Cl)CC1	-6	1.6	-19	7%	-2
COc1ccc(Br)cc1-c1noc(-c2ccccc2F)n1	-9	-0.7	-6	1%	-11
O=C(NCc1ccco1)c1ccc(N2CCCCC2)c([N+](=O)[O-])c1	4	3.5	-8	-2%	-5
O=C(O)/C=C\C(=O)Nc1cccc(NC(=O)c2ccccc2)c1	-1	4.8	·	-2%	13
Cc1ccc(NS(=O)(=O)c2cccc([N+](=O)[O-])c2)nc1	-1	-0.9	·	3%	4
COc1ccc(-c2ccc3nnc(SCC(=O)NCC4CCCO4)n3n2)cc1 (configuration not stated)	-5	0.1	·	·	·
Cc1ccc(CNC(=O)c2cccnc2Cl)cc1	6	-4.8	·	3%	-3
CCC(=O)N1CCN(c2ccc(NC(=O)COc3ccccc3[N+](=O)[O-])cc2)CC1	-12	-4.9	·	0%	-7
O=C1CC(/C=C/c2ccccc2)(C(=O)NC2CCCC2)N1c1ccc(S(=O)(=O)N2CCCC2)cc1 (configuration not stated)	-3	1.4	-16	3%	3
O=S(=O)(c1ccc(OC(F)(F)F)cc1)N1CCCC(c2ccccc2)C1 (configuration not stated)	12	0.2	·	·	·
O=C1c2ccccc2S(=O)(=O)N1Cc1cc(=O)n2ccsc2n1	-6	-0.3	-29	3%	3
CN(C)Cc1c(C(=O)N/N=C/c2ccco2)nnn1-c1nonc1N	0	-1.2	·	·	·
COc1ccc(/C=C/CN2CCC(CO)(Cc3ccccc3Cl)CC2)cc1	69	1.0	·	61%	-37
Cc1ccc2n(n1)c(=O)c(Cc1ccccc1)c([O-])[n+]2-c1ccccc1	-6	-4.1	-8	5%	3
CCCC(=O)NCCc1nc2ccccc2n1CC(=O)c1ccccc1	-7	5.9	-5	-3%	2

Some of these compounds in order of molecular weight, smallest number first.
SMILES	Mtb betalactam	RecA splice inh	YopH inh	Mtb growth	Arbovirus anti	others
O=C(O)/C=C\C(=O)Nc1cccc(NC(=O)c2ccccc2)c1	-1	4.8	·	-2%	13
CCCC(=O)NCCc1nc2ccccc2n1CC(=O)c1ccccc1	-7	5.9	-5	-3%	2
CC(C)c1nc2sc3c(NCc4ccccc4)ncnc3c2c2c1COC(C)(C)C2	7	-0.4	-14	-2%	-1

More structures follow.
SMILES	Mtb betalactam	RecA splice inh	YopH inh	Mtb growth	Arbovirus anti	others
Cc1cccc(C)c1OCCN1CCCC1	-6	-0.2	·	·	·
OCC1(Cc2ccccc2)CCN(C2CCN(c3ccc(F)c(F)c3)CC2)CC1	-3	-1.3	·	-16%	-10
CCOc1ccc(N(CC(=O)Nc2ccc(C)c(C)c2)S(=O)(=O)c2c(C)[nH]c(=O)[nH]c2=O)cc1	-3	-4.2	·	4%	·
O=C(O)CCC(=O)Nc1ccc(SSc2ccc(NC(=O)CCC(=O)O)cc2)cc1	-2	-8.7	·	·	·
CC(=O)N1CCOc2ccc(S(=O)(=O)N3CCC(C(=O)NCc4ccc(C)cc4)CC3)cc21	-2	0.2	·	·	·
O=C(c1ccc2c(c1)OCCCO2)N1CCCCC1	-6	0.2	·	·	·
O=C(Nc1cccc(S(=O)(=O)N2CCCCCC2)c1)C1CCN(C(=O)c2ccc(Cl)cc2)CC1	-4	5.0	·	·	·
NNC(=O)c1[nH]c2ccc(Cl)cc2c1-c1ccccc1	64	1.6	·	?	·
CNC(=O)c1sc(-c2ccc(Cl)cc2)nc1C	16	0.9	-19	0%	-2
CC(C)Cc1nc2sc3c(SCC(N)=O)ncnc3c2c2c1CCC2	0	-0.3	·	-12%	·
CCCCc1ccc(S(=O)(=O)Nc2cc(C)on2)cc1	-11	2.4	-10	8%	14
O=C(c1cccn2c(=O)c3cc(Cl)ccc3nc12)N1CCC2(CC1)OCCO2	·	-176	14	-4%	-8
CCOc1ccccc1N1CCN(CC(=O)Nc2nc(C)c(C(=O)N(C)C)s2)CC1	4	0.5	·	·	·
COc1ccc2c(c1)CC(C(=O)Nc1ccc(Cl)cc1)/C(=N/O)O2 (configuration not stated)	4	-0.4	·	·	·
O=C(CSc1ccccc1)N1CCN(c2ccccn2)CC1	-4	-5.6	·	0%	2
Cc1nc2ccc(NC(=S)NC3CC3)cc2nc1C	-12	-0.3	0	-1%	-9
O=C(CNC(=S)N(Cc1ccc(F)cc1)C1CCCCC1)NCC1CCCO1 (configuration not stated)	-4	-0.7	·	4%	-2
N#Cc1ccc(/C=N/NC(=O)c2ccccc2F)cc1	4	-2.3	-23	-7%	-2
O=C(Nc1nnc(SCc2ccc(F)cc2)s1)c1cccnc1Cl	26	4.4	·	8%	5
Cc1cc(C)n2cc(CSc3nnnn3-c3ccccc3)nc2n1	-6	-0.7	-46	-2%	5
CSCC[C@H](NC(=O)C1CCN(S(=O)(=O)c2ccc(C)cc2)CC1)C(=O)NC1CCS(=O)(=O)C1 (some centres not stated)	0	-3.1	-18	3%	3
O=C(Nc1ccc(F)cc1F)c1cccn1-c1ncc(C(F)(F)F)cc1Cl	-2	3.4	-32	8%	5
O=C1c2ccccc2NC(c2ccc(-c3cccc([N+](=O)[O-])c3)o2)N1O (configuration not stated)	-2	-5.6	-49	1%	-21
COc1ccccc1C1C(C(=O)c2cc3ccccc3o2)=C(O)C(=O)N1CCN1CCOCC1 (configuration not stated)	-1	3.7	-44	-4%	2
CC(=O)Nc1sc(N/N=C/c2ccc(N(C)C)cc2)nc1-c1ccc(C)cc1	·	-1.9	·	-4%	·
O=C(CN1C(=O)C2C3C=CC(C3)C2C1=O)NCc1ccco1 (configuration not stated)	-7	0.5	-10	-11%	5
Cc1cccn2c(=O)c(/C=C(\C#N)C(=O)NCc3ccccc3)c(N3CCC(C(N)=O)CC3)nc12	2	-15	·	-1%	·
Cc1ccc(Cl)cc1NC(=O)CCCN1C(=O)c2cccnc2C1=O	-7	4.0	·	-1%	0
CCOCCCn1c(=N)c(C(=O)NCCN2CCOCC2)cc2c(=O)n3cccc(C)c3nc21	-2	·	-27	·	3
COc1ccccc1CNC(=O)C1=C(C)C(=O)OC12CCC(C)CC2 (configuration not stated)	2	0.2	-32	3%	2
COc1cc(OC)cc(C(C(=O)NCc2ccccc2)N(Cc2ccco2)C(=O)c2ccno2)c1 (configuration not stated)	-5	2.3	-33	2%	-3
N#CCC1c2ccccc2CCN1C(=O)Nc1ccc(Cl)cc1 (configuration not stated)	-1	4.2	-54	-4%	-6
O=C1/C(=C\c2cccc(O)c2O)SC(=S)N1Cc1ccccc1	-1	36*	·	·	·
COc1ccccc1N/C(=N/S(=O)(=O)c1ccc(C)cc1)c1ccccc1	4	-0.9	-36	-10%	12
CCCCCCCCC(=O)N/N=C(\C)c1ccco1	25	0.5	-26	?	-6
COc1ccc(CN(C)CC(=O)Nc2ccccc2-c2ccccc2)c(OC)c1	4	9.6	·	6%	-15
S=C(NCC1CCCO1)Nc1ccc(Cl)cc1 (configuration not stated)	0	1.3	-33	-7%	1
COc1ccc(C(=O)c2c(C)c(CCC#N)n3ccccc23)c(OC)c1	1	-5.0	·	·	·
Cc1ccc2[nH]c3c(N4CCc5ccccc5C4)ncnc3c2c1	99	6.7	-21	12µM*	-19
COc1ccc(CNC(=O)Nc2ccc(C)cc2)cc1	2	-1.9	-23	12%	-6
COc1cccc(NC(=S)NC(C)c2ccc(OC)c(OC)c2)c1 (configuration not stated)	-2	3.1	·	1%	-6
Clc1ccc(/C=N/N2CCN(Cc3ccccc3)CC2)cc1	1	14	·	·	·
COc1ccccc1OCCC(=O)OCC(=O)Nc1cc(S(=O)(=O)N2CCOCC2)ccc1Cl	-2	-2.7	·	-1%	22
c1ccc(P(c2ccccn2)c2ccccn2)cc1	-5	0.1	·	-10%	0
C(=N\n1cnnc1)/c1ccc(OCc2cccc3ccccc23)cc1	77	6.6	-32	3%	-27
N#Cc1nc(COc2ccccc2Cl)oc1NCc1cccnc1	16	-7.9	25	1%	-2
Cc1cc(-c2cccs2)c2c(n1)sc1c(=O)[nH]c(=O)[nH]c12	0	0.6	-14	3%	3
COC(=O)c1cc(-c2cccc([N+](=O)[O-])c2)c2c(=O)[nH]c(=O)n(C)c2n1	8	-2.3	·	·	·
Cc1cn(C(=O)CN2C(=O)c3ccccc3C2=O)c(C)n1	·	-1.4	9	2%	4

Among those listed so far, 10 contain fluorine:
SMILES	Mtb betalactam	RecA splice inh	YopH inh	Mtb growth	Arbovirus anti	others
O=C1c2[nH]nc(-c3ccccc3O)c2C(c2ccc(F)cc2)N1CC1CCCO1 (configuration not stated)	?	-4.5	-17	-13%	33*
CCc1[nH]nc(C(=O)N2CCCC(CO)(Cc3ccc(F)cc3F)C2)c1C (configuration not stated)	-5	6.9	·	·	·
CC(C)CC1=NN(C(=O)c2ccco2)C(O)(C(F)(F)F)C1 (configuration not stated)	-5	-1.2	·	2%	1
COc1ccc(Br)cc1-c1noc(-c2ccccc2F)n1	-9	-0.7	-6	1%	-11
O=S(=O)(c1ccc(OC(F)(F)F)cc1)N1CCCC(c2ccccc2)C1 (configuration not stated)	12	0.2	·	·	·
OCC1(Cc2ccccc2)CCN(C2CCN(c3ccc(F)c(F)c3)CC2)CC1	-3	-1.3	·	-16%	-10
O=C(CNC(=S)N(Cc1ccc(F)cc1)C1CCCCC1)NCC1CCCO1 (configuration not stated)	-4	-0.7	·	4%	-2
N#Cc1ccc(/C=N/NC(=O)c2ccccc2F)cc1	4	-2.3	-23	-7%	-2
O=C(Nc1nnc(SCc2ccc(F)cc2)s1)c1cccnc1Cl	26	4.4	·	8%	5
O=C(Nc1ccc(F)cc1F)c1cccn1-c1ncc(C(F)(F)F)cc1Cl	-2	3.4	-32	8%	5
